Compound activity from PubChem BioAssay.
PD-1 reverse act = activators reversing PD-1 mediated T-cell inhibition. primary human CD4 T cells, PD-L1 beads, CellTiter-Glo 96 h. 29,000 tested, under 10 active. AID 2316. activation, % (no concentration beside the values);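 active means replicate mean of 50% or more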;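 further: 0% = median vehicle wells and 100% = positive control; 100 nL library stock added to about 50 µL; numbers are from one replicate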
Shh pathway inh = Sonic Hedgehog pathway inhibition; Shh-LIGHT2 Gli-luciferase reporter, 30 h; inhibition, % (no concentration beside the values); hit rate 2.1% among 22,000; AID 2313;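 active means replicate mean of 65% or more; inconclusive means mean lower but half the replicates past it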;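 further: pathway switched on by Shh-conditioned medium diluted 1 in 25 in low serum; 100 nL library stock added to about 40 µL; 0% = median of neutral wells and 100% = positive control level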
MITF inhib = inhibitors of MITF; TRPM1 promoter luciferase, luminescence, 24 h; inhibition, % (no concentration beside the values); hit rate 0.28% among 37,000; AID 2240;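 active means most replicates at 85% or more, or half of them and the mean; inconclusive means half reach 85% but not the mean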;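 further: human melanocyte line stably carrying TRPM1 promoter luciferase reporter; 0% = vehicle wells and 100% = a positive control; the first replicate is given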
YB-1 expr inh = YB-1 expression inhibition. hit rate 0.37% among 30,000. U2OS, qRT-PCR YB-1 vs CDIP delta delta Cp, 16 h; hits give high values; zero = DMSO, each unit about twofold. delta delta Cp (YB-1 minus CDIP) (concentration not given with the values);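 active means delta delta Cp rounded down to an integer at or above 3, about 3 SD of DMSO wells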;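 further: higher means less YB-1 transcript or more CDIP transcript relative to DMSO; stock transfer was 100 nL into about 100 µL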
* hit, by the source's call; ? = inconclusive; . = no result given. A portion of the library, so the mix of outcomes need not match the whole.

SMILES	PD-1 reverse act	Shh pathway inh	MITF inhib	YB-1 expr inh
C[C@H]1CN([C@@H](C)CO)C(=O)c2cc(NS(=O)(=O)c3cccs3)ccc2O[C@@H]1CN(C)Cc1ccc(Cl)c(Cl)c1	.	.	8	-0.026
C[C@@H]1CN([C@@H](C)CO)C(=O)c2cc(NS(=O)(=O)c3ccc(Cl)cc3)ccc2O[C@@H]1CN(C)Cc1ccc(Oc2ccccc2)cc1	.	.	35	0.079
C[C@@H]1CCCCO[C@@H](CN(C)C(=O)NC2CCCCC2)[C@@H](C)CN([C@H](C)CO)C(=O)c2cc(NC(=O)NC3CCCCC3)ccc2O1	.	9	-14	0.056
CCOC(=O)CCS(=O)(=O)c1nc(-c2ccccc2)cc(C(F)(F)F)n1	-16	.	61	.
COc1ccc(S(=O)(=O)Nc2cccc3c2O[C@H](CN(C)Cc2ccc(C(=O)O)cc2)[C@@H](C)CN([C@@H](C)CO)C3=O)cc1	.	-61	-1	-0.48
CS(=O)(=O)N(CC(=O)Nc1c(F)cccc1F)c1ccccc1	-1.0	.	3	.
NC(=O)CSc1nc2ccccc2n1CC(=O)N1CCCCC1	-4.2	.	-13	.
C[C@H]1CN([C@@H](C)CO)C(=O)c2cc(NC(=O)Nc3ccc(F)cc3)ccc2O[C@H]1CN(C)CC1CCCCC1	-0.3	.	?	-0.53
C[C@@H]1CN([C@H](C)CO)C(=O)c2cccc(NC(=O)c3ccc(-c4nccs4)cc3)c2O[C@@H]1CN(C)Cc1ccc(Cl)c(Cl)c1	-4.0	27	16	-0.09
C[C@@H]1CN([C@@H](C)CO)C(=O)Cc2cc(NC(=O)C3CCCCC3)ccc2O[C@@H]1CN(C)Cc1ccccc1	.	8	0	0.14

Brought forward from above: 5 compounds, then new ones.
SMILES	PD-1 reverse act	Shh pathway inh	MITF inhib	YB-1 expr inh
CS(=O)(=O)N(CC(=O)Nc1c(F)cccc1F)c1ccccc1	-1.0	.	3	.
NC(=O)CSc1nc2ccccc2n1CC(=O)N1CCCCC1	-4.2	.	-13	.
C[C@H]1CN([C@@H](C)CO)C(=O)c2cc(NC(=O)Nc3ccc(F)cc3)ccc2O[C@H]1CN(C)CC1CCCCC1	-0.3	.	?	-0.53
C[C@@H]1CN([C@H](C)CO)C(=O)c2cccc(NC(=O)c3ccc(-c4nccs4)cc3)c2O[C@@H]1CN(C)Cc1ccc(Cl)c(Cl)c1	-4.0	27	16	-0.09
C[C@@H]1CN([C@@H](C)CO)C(=O)Cc2cc(NC(=O)C3CCCCC3)ccc2O[C@@H]1CN(C)Cc1ccccc1	.	8	0	0.14
C[C@@H]1CN([C@H](C)CO)C(=O)c2cccc(NC(=O)c3ccncc3)c2O[C@@H]1CN(C)Cc1ccncc1	-1.3	46	3	0.32
C[C@H]1CN([C@@H](C)CO)C(=O)c2cc(NC(=O)Cc3cn(C)c4ccccc34)ccc2O[C@@H]1CN(C)Cc1ccc(Cl)c(Cl)c1	-4.0	16	52	-0.17
COc1ccc(NC(=O)N(C)C[C@H]2OCCCC[C@@H](C)Oc3ccc(NS(=O)(=O)c4ccc(OC)cc4)cc3C(=O)N([C@H](C)CO)C[C@@H]2C)cc1	-1.1	-1	3	0.59
C[C@H]1CN([C@@H](C)CO)C(=O)Cc2cc(NC(=O)Cc3ccccc3)ccc2O[C@@H]1CN(C)S(C)(=O)=O	0.6	-14	-21	-0.16
C[C@H]1CN([C@@H](C)CO)C(=O)c2cccc(NS(=O)(=O)c3cn(C)cn3)c2O[C@H]1CN(C)CC1CCCCC1	2.2	-32	-5	0.35
C[C@@H]1CN([C@@H](C)CO)C(=O)Cc2cc(NS(=O)(=O)c3ccccc3)ccc2O[C@@H]1CN(C)C(=O)Nc1ccc(F)cc1	-1.3	-6	-3	-0.17
COc1ccc(C2OCC3(O)C(c4ccc(OC)c(OC)c4)OCC23)cc1OC (centres undefined)	0.2	-8	9	-0.23
O=S1(=O)CC=C(Sc2ccccc2)C1	0.0	-33	-23	-0.32
C[C@H]1CN([C@@H](C)CO)C(=O)c2cccc(NC(=O)c3nc4ccccc4s3)c2O[C@@H]1CN(C)Cc1ccc(Oc2ccccc2)cc1	2.7	-24	21	0.47
C[C@H](CO)N1C[C@H](C)[C@H](CN(C)C(=O)NC2CCCCC2)Oc2ccc(NS(=O)(=O)c3ccccc3)cc2CC1=O	0.4	24	-7	0.26
Cc1ccc(S(=O)(=O)Nc2cccc3c2O[C@@H](CN(C)CC2CCCCC2)[C@H](C)CN([C@H](C)CO)C3=O)cc1	1.3	6	0	0.073
C[C@@H]1CN([C@H](C)CO)C(=O)c2cccc(NC(=O)Nc3ccc(F)cc3)c2O[C@H]1CN(C)C(=O)Nc1ccc(C(F)(F)F)cc1	-5.0	8	16	-0.061
COc1ccccc1NC(=O)C(Cc1ccccc1)N1C(=O)C2C3c4ccccc4C(c4ccccc43)C2C1=O (centres undefined)	-0.4	.	-2	.
C[C@@H]1CCCCO[C@@H](CN(C)S(=O)(=O)c2ccc(F)cc2)[C@@H](C)CN([C@H](C)CO)C(=O)c2cc(NC(=O)Nc3cccc4ccccc34)ccc2O1	.	8	7	-0.16
Cc1cccc(OCC(=O)Nc2cc(-c3nc4cc(Cl)ccc4o3)ccc2C)c1	-11	.	12	.
C[C@@H]1CN([C@@H](C)CO)C(=O)c2cc(NS(=O)(=O)c3cn(C)cn3)ccc2O[C@@H]1CN(C)Cc1ccc2c(c1)OCO2	-0.3	-15	0	0.29
C[C@H](CO)N1C[C@H](C)[C@@H](CN(C)Cc2ccc(Oc3ccccc3)cc2)Oc2c(NS(=O)(=O)c3ccccc3)cccc2C1=O	0.9	-52	8	-0.37
CN(C(=O)COc1ccc(Oc2ccccc2)cc1)C1CCS(=O)(=O)C1 (centres undefined)	1.2	.	-16	0.057
O=C(NC1CCN(C(=O)c2ccc(Cl)cc2Cl)CC1)c1ccccc1	1.7	41	-13	-0.13
C[C@H]1CN([C@@H](C)CO)C(=O)c2cccc(NC(=O)c3ccncc3)c2O[C@@H]1CN(C)Cc1ccc(C(=O)O)cc1	1.3	-5	1	0.081

Fetched by structure from the list above, 3 records:
SMILES	PD-1 reverse act	Shh pathway inh	MITF inhib	YB-1 expr inh
COc1ccc(C2OCC3(O)C(c4ccc(OC)c(OC)c4)OCC23)cc1OC (centres undefined)	0.2	-8	9	-0.23
O=C(NC1CCN(C(=O)c2ccc(Cl)cc2Cl)CC1)c1ccccc1	1.7	41	-13	-0.13
C[C@@H]1CCCCO[C@@H](CN(C)C(=O)NC2CCCCC2)[C@@H](C)CN([C@H](C)CO)C(=O)c2cc(NC(=O)NC3CCCCC3)ccc2O1	.	9	-14	0.056

(further entries)
SMILES	PD-1 reverse act	Shh pathway inh	MITF inhib	YB-1 expr inh
C[C@H](CO)N1C[C@H](C)[C@@H](CN(C)C)Oc2c(NC(=O)Nc3ccc(C(F)(F)F)cc3)cccc2C1=O	.	-51	-30	-0.095
COc1ccc(S(=O)(=O)Nc2ccc3c(c2)CC(=O)N([C@@H](C)CO)C[C@H](C)[C@H](CN(C)Cc2ccccc2)O3)cc1	5.4	41	10	0.34
CCS(=O)(=O)CCn1c([N+](=O)[O-])cnc1C	.	-53	-4	0.19
COc1ccc(S(=O)(=O)N(C)C[C@@H]2Oc3c(NC(=O)c4ccncc4)cccc3C(=O)N([C@@H](C)CO)C[C@@H]2C)cc1	-0.4	-51	-20	-0.012
C[C@H](CO)N1C[C@H](C)[C@H](CN(C)Cc2ccncc2)Oc2ccc(N(C)C)cc2C1=O	1.3	-7	0	0.033
C/C=C/C=C/C(=O)O[C@@H]1C=C(CO)[C@](O)(CO)[C@@]2(C)CCCC(C)(C)[C@H]12	2.8	-16	2	-0.05
C[C@H](CO)N1C[C@H](C)[C@@H](CN(C)Cc2ccccc2)Oc2c(NC(=O)C3CCOCC3)cccc2C1=O	-1.7	14	0	0.51
C[C@H](CO)N1C[C@H](C)[C@@H](CN(C)Cc2ccc(Cl)c(Cl)c2)Oc2ccc(NS(=O)(=O)c3cccs3)cc2C1=O	-14	.	0	-0.44
COc1ccc(S(=O)(=O)Nc2ccc3c(c2)C(=O)N([C@@H](C)CO)C[C@H](C)[C@@H](CN(C)CC2CCCCC2)O3)cc1	-0.9	.	-6	0.045
C[C@@H]1CN([C@@H](C)CO)C(=O)c2cc(NC(=O)NC3CCCCC3)ccc2O[C@H]1CN(C)Cc1ccc(C(=O)Nc2ccccc2N)cc1	-1.7	.	-4	-0.22
C[C@H](CO)N1C[C@H](C)[C@H](CN(C)Cc2ccc(C(=O)Nc3ccccc3N)cc2)Oc2ccc(NS(=O)(=O)c3cn(C)cn3)cc2C1=O	1.3	.	2	0.41
C[C@@H]1CN([C@@H](C)CO)C(=O)c2cccc(NC(=O)C3CCCCC3)c2O[C@H]1CN(C)Cc1ccc(C(=O)O)cc1	.	3	-13	-0.58
Cc1ccc(-c2csc3nnc(SCc4csc(C)n4)n23)cc1	-0.7	.	-5	.
C[C@@H]1CN([C@@H](C)CO)C(=O)c2cccc(NC(=O)c3nc4ccccc4s3)c2O[C@@H]1CN(C)S(C)(=O)=O	0.2	4	1	0.074
COc1ccc(-c2nc(SCC(=O)Nc3ccc(Br)c(Cl)c3)n[nH]2)cc1	-3.7	.	24	.
COc1ccc(C2CC(c3ccc(Br)cc3)=NN2C(=O)CCN2CCOCC2)cc1 (centres undefined)	-0.9	40	-9	-0.27
C[C@H](CO)N1C[C@H](C)[C@@H](CN(C)Cc2ccncc2)Oc2ccc(NC(=O)Cn3cnnn3)cc2C1=O	.	.	-4	-8.4
OC(COc1ccc2c(c1)CCC2)Cn1cnc2ccccc21 (centres undefined)	-5.6	.	30	.
O=C(Oc1cccc2ccccc12)c1ccccc1	-1.2	-10	1	-0.4
COc1ccc(CN(C)C[C@@H]2Oc3c(NC(=O)Nc4c(C)noc4C)cccc3C(=O)N([C@H](C)CO)C[C@H]2C)cc1	.	6	4	-0.15
C[C@H]1CN([C@@H](C)CO)C(=O)c2cccc(NC(=O)c3nc4ccccc4s3)c2O[C@H]1CN(C)Cc1ccc(C(=O)O)cc1	-1.8	8	-1	-0.7
C[C@H](CO)N1C[C@H](C)[C@@H](CN(C)Cc2ccc(C(=O)O)cc2)Oc2ccc(NS(C)(=O)=O)cc2C1=O	0.4	-23	-4	0.16
O=C1Nc2ccc(S(=O)(=O)NCCCO)c3cccc1c23	2.4	.	6	.
C[C@H]1CN([C@@H](C)CO)C(=O)c2cccc(NS(=O)(=O)c3ccc(Cl)cc3)c2O[C@@H]1CN(C)Cc1ccc(Oc2ccccc2)cc1	.	-8	9	0.32
CC(C)NC(=O)Nc1ccc2c(c1)C(=O)N([C@H](C)CO)C[C@H](C)[C@H](CN(C)Cc1ccc(C(=O)Nc3ccccc3N)cc1)OCCCC[C@@H](C)O2	-0.2	.	-10	-1.2
COc1ccc(S(=O)(=O)Nc2ccc3c(c2)C(=O)N([C@H](C)CO)C[C@H](C)[C@H](CN(C)Cc2ccncc2)OCCCC[C@@H](C)O3)cc1	.	-28	-9	0.025
COc1ccc(S(=O)(=O)N(C)C[C@@H]2Oc3ccc(NC(=O)CCCN(C)C)cc3C(=O)N([C@@H](C)CO)C[C@H]2C)cc1	1.3	-5	5	-0.098
Cc1ccc(S(=O)(=O)N(C)C[C@H]2Oc3ccc(NC(=O)CCN4CCOCC4)cc3C(=O)N([C@@H](C)CO)C[C@H]2C)cc1	1.0	-1	3	0.00063
C=C1CC[C@@]2(OC1)O[C@H]1CC3[C@@H]4CC=C5C[C@H](O[C@@H]6OC[C@H](O)[C@H](O)[C@H]6O[C@@H]6O[C@@H](C)[C@H](O)[C@@H](O)[C@H]6O)C[C@@H](O)[C@]5(C)C4CC[C@]3(C)[C@H]1[C@@H]2C (some centres undefined)	.	11	.	-17
C[C@@H]1CCCCO[C@@H](CN(C)S(=O)(=O)c2ccccc2)[C@@H](C)CN([C@H](C)CO)C(=O)c2cc(NC(=O)c3ccncc3)ccc2O1	0.0	.	4	-0.023
C[C@@H]1CN([C@H](C)CO)C(=O)Cc2cc(NC(=O)CCN3CCOCC3)ccc2O[C@@H]1CN(C)S(=O)(=O)c1ccc(Cl)cc1	-1.9	6	1	0.24
Cc1noc(C)c1S(=O)(=O)Nc1ccc2c(c1)C(=O)N([C@@H](C)CO)C[C@H](C)[C@H](CN(C)Cc1ccc(Oc3ccccc3)cc1)O2	.	38	1	0.093
COc1ccc(S(=O)(=O)Nc2cccc3c2O[C@@H](CN(C)Cc2ccccc2)[C@H](C)CN([C@H](C)CO)C3=O)cc1	-1.7	4	3	-0.041
COc1cc(C2OCC3(OC4OC(CO)C(O)C(O)C4O)C(c4ccc(O)c(OC)c4)OCC23)ccc1O (centres undefined)	-1.2	-28	-13	0.48
O=C(CSc1n[nH]c(-c2ccco2)n1)Nc1ccc(Br)cc1	1.2	.	4	.
